Screening data as filed in PubChem.
Rango-impB inh = inhibitors of Rango-importin beta complex formation. Q14974. Rango CFP/YFP FRET sensor + importin beta, 45 min. Potency, µM (top dose mostly 92.2 µM), without a hit: top-dose inhibition of complex formation. 340,000 tested, 0.031% active; active = rising FRET ratio curve, often small or poorly fitted; inconclusive = mostly compound fluorescence or quenching in the first reads; inactive = flat curves in all reads;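 further: potency means the concentration at half of the fitted maximal effect; 0% = DMSO wells and 100% = buffer wells lacking importin beta; nearly all actives have a fitted effect of over 15% in size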
Target sequence (Q14974 whole entry, looked up): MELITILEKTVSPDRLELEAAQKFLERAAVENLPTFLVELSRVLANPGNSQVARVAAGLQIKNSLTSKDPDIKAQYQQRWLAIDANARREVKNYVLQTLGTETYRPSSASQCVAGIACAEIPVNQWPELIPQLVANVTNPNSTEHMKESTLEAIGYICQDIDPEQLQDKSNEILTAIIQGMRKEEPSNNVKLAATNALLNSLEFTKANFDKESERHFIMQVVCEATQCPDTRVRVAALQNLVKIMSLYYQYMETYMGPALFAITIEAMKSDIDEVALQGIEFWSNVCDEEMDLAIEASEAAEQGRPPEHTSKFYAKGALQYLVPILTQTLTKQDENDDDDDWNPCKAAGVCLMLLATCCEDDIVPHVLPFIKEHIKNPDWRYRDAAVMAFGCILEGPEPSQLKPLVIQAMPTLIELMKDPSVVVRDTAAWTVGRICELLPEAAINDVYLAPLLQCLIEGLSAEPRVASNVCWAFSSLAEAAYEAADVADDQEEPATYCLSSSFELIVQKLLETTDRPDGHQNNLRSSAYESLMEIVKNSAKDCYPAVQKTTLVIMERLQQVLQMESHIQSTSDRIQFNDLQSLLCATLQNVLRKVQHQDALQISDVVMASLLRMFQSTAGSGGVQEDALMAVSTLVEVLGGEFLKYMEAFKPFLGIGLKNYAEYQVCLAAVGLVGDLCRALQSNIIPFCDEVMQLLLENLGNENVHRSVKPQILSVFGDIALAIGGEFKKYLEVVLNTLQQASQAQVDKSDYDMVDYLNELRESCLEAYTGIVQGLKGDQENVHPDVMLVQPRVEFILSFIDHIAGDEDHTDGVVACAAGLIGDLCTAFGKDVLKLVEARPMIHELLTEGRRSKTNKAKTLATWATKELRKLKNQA
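FRET biosensor (snurportin 1 IBB flanked by EYFP and cerulean), 50 nM, with compound 5 min, then 0.125 microM importin beta in PBS, 1 mM DTT, 0.02% Tween-20, 0.1% BSA. CFP/YFP ratio read after 45 min at room temperature; pre-read flags interference.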
miR-21 reporter = miR-21 reporter, rising signal | HeLa miR-21 FLuc reporter, luciferase, 48 h | Potency, µM (highest dose often 38.3 µM), for the others: at the top dose reporter change, positive = more light | 340,000 tested, under 10 active | AID 2288; active = well fitted rising curve with a large enough effect; inconclusive = small, poorly fitted or top-dose-only effect; inactive = no such curve, though single readings can be large or run the other way;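 further: % of control where 0% means no effect; miR-21 action dims this reporter so a rising signal means less miR-21 action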
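HeLa miR-21-FLuc reporter line, endogenous miR-21; 2000 cells/well in DMEM/10% FBS; compound titration up to ~40uM final, 48 h, 37 degree Celsius; luciferase detection reagent, 15 min lysis, CCD luminescence.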
Rango release inh = inhibition of RanGTP-driven Rango-importin beta dissociation; AID 540253; Potency, µM (series often up to 46.1 µM), for the others: at the highest dose activity change, negative = inhibition; O95149+P62826; 340,000 tested, 0.071% active; Biochemical FRET Rango-importin beta, RanGTP-induced dissociation; active means falling FRET ratio curve, often poorly fitted, with flat reads before Ran was added; inconclusive means other falling curves, or compound fluorescence or quenching; inactive means flat or rising ratio curve;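 further: potency means the concentration at half of the fitted maximal effect; % of control where 0% means no effect; nearly all actives have a fitted effect of over 45% in size; -100% = wells without RanGTP and RCC1; the record marks most hits as doubtful in a second field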
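Rango (0.1 uM)–importin beta (0.25 uM) complex; RanGTP-RCC1 trigger; 45 min RT; CFP/YFP FRET read.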
GLA inh pH 4.5 = alpha-galactosidase A (human) inhibition, pH 4.5. P06280. purified enzyme, 4-MU-alpha-Gal fluorescence, pH 4.5. activity change, negative = inhibition, % at 105 µM. 230,000 tested, under 10 active. AID 1467; inconclusive = small, poorly fitted or top-dose-only inhibition, or a rising curve; inactive = flat fitted curve, though single readings scatter; no compound was filed as active;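 further: 0% = full activity with enzyme and -100% = basal without enzyme; dose as in the result columns while the protocol names 77 µM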
* = called active by the depositor; ? = inconclusive; . = not tested or not shown.

SMILES	Rango-impB inh	miR-21 reporter	Rango release inh	GLA inh pH 4.5
CC(C)c1ccc(C(=O)NN2C(=O)C3CCCCC3C2=O)cc1 (configuration not stated)	-0.6%	-38%	16%	-1
O=C(COC(=O)c1ccc(OC(F)F)cc1)NCc1cccs1	0.5%	.	-2%	.
CC(C)OCCCNC(=O)c1ccc(CS(=O)(=O)Cc2ccccc2F)o1	?	1%	1%	10
CCOc1ccc(C(C)NC(=O)c2ccccc2F)cc1 (configuration not stated)	-0.5%	-2%	-8%	-1
CC(C)Sc1nc2[nH]ncc2c(=O)[nH]1	0.1%	-3%	-5%	7
Cc1ccc2c(Cl)c(C(=O)NCCc3ccccc3)sc2c1	0.6%	-77%	-1%	-7
CCc1ccc(OC(C)C(=O)Nc2ccc(S(=O)(=O)Nc3cc(C)on3)cc2)cc1 (configuration not stated)	3.1%	-3%	12%	.
O=C1NC2(CCCCC2)C(=O)N1Cc1cccc(C(F)(F)F)c1	-0.7%	0%	-1%	-1
Cc1ccc(CC2CC(=O)N(c3cc(Cl)ccn3)C2=O)cc1 (configuration not stated)	4.1%	4%	-10%	-25
CCOC(=O)c1[nH]c(C)c(C(=O)OCC(=O)Nc2sc3c(c2C#N)CCCCC3)c1C	0.3%	-11%	6%	5
COc1ccc(Br)cc1S(=O)(=O)N1CCN=C1c1ccccc1	-0.5%	0%	-5%	.
CSCCC(NC(=O)c1ccc(=O)n(C)n1)c1nc2ccccc2[nH]1 (configuration not stated)	0.8%	-4%	30%	-5
COc1ccccc1/C=N/NC(=O)C(NC(=O)c1ccccc1)=C(C)C	-0.5%	-7%	-5%	-3
COc1ccc(N2CCN(C3CCCN(C(=O)CN4CCOC4=O)C3)CC2)cc1 (configuration not stated)	0.2%	1%	-8%	.
COC(=O)[C@H]1[C@H](C(=O)OC)[C@@H](C(=O)OC)N(c2ccc(OC)cc2)[C@@H]1C(=O)OC	4.3%	-2%	10%	-2
O=C(NC1CCCC1)c1ccc(Cl)s1	-4.7%	-10%	1%	.
Cc1cc(C(=O)N/N=C/c2cccc([N+](=O)[O-])c2O)n[nH]1	-3.9%	-6%	-16%	-5
CCn1c(SCC(=O)NNC(=O)Cc2ccccc2)nnc1-c1ccncc1	-0.6%	1%	-13%	2
Cc1ccc(S(=O)(=O)c2nc(-c3ccc(F)cc3)oc2N2CCOCC2)cc1	-1.3%	-17%	9%	.
Clc1ccc(OCCOCCOc2cccc3cccnc23)c(Br)c1	-3.9%	-20%	18%	-8
Cc1ccc(NC(=O)CNC(=O)OCc2ccccc2)cc1C	-4.5%	-14%	-2%	-3
CC1CCN(c2c(NCC3CCC(C(=O)N4CCCC(C)C4)CC3)c(=O)c2=O)CC1 (configuration not stated)	-2.9%	1%	-7%	-5
CCC1Nc2ncnc(N3CCOCC3)c2N(Cc2ccccc2)C1=O (configuration not stated)	5.8%	.	-7%	.
COc1ccccc1CNC(=O)CC(NS(=O)(=O)c1ccc(C)cc1)c1ccco1 (configuration not stated)	-0.9%	1%	-4%	-4
CCc1nnc(NC(=O)CSc2nnc(C(C)NC(=O)c3ccccc3)n2C)s1 (configuration not stated)	1.5%	-3%	12%	.
Cc1ccc(NCC(O)Cn2cnc3c2c(=O)n(C)c(=O)n3C)cc1 (configuration not stated)	0.6%	-5%	-4%	-21
COc1ccc(S(=O)(=O)N2CCc3ccccc32)cc1C(=O)N1CCN(C=O)CC1	-0.1%	.	-4%	.
CC(=O)NC(=O)NC1CSCC1OC(C)=O (configuration not stated)	-1.9%	-3%	-1%	-2
CC(C)(C)NC(=O)NC(=O)COc1ccccn1	-2.2%	-1%	-5%	1
O=C(OC1CCOC1=O)c1ccccc1C(=O)c1ccc(Cl)c([N+](=O)[O-])c1 (configuration not stated)	-0.5%	.	2%	.

6 compounds from above, showing only Rango-impB inh:
SMILES | Rango-impB inh
COc1ccc(N2CCN(C3CCCN(C(=O)CN4CCOC4=O)C3)CC2)cc1 (configuration not stated) | 0.2%
COC(=O)[C@H]1[C@H](C(=O)OC)[C@@H](C(=O)OC)N(c2ccc(OC)cc2)[C@@H]1C(=O)OC | 4.3%
O=C(NC1CCCC1)c1ccc(Cl)s1 | -4.7%
Cc1cc(C(=O)N/N=C/c2cccc([N+](=O)[O-])c2O)n[nH]1 | -3.9%
CCn1c(SCC(=O)NNC(=O)Cc2ccccc2)nnc1-c1ccncc1 | -0.6%
Cc1ccc(S(=O)(=O)c2nc(-c3ccc(F)cc3)oc2N2CCOCC2)cc1 | -1.3%

Two of the compounds above, as labelled records:
COc1ccc(S(=O)(=O)N2CCc3ccccc32)cc1C(=O)N1CCN(C=O)CC1
  Rango-impB inh: -0.1% | miR-21 reporter: . | Rango release inh: -4% | GLA inh pH 4.5: .
CC(=O)NC(=O)NC1CSCC1OC(C)=O (configuration not stated)
  Rango-impB inh: -1.9% | miR-21 reporter: -3% | Rango release inh: -1% | GLA inh pH 4.5: -2

(listing goes on)
SMILES	Rango-impB inh	miR-21 reporter	Rango release inh	GLA inh pH 4.5
COCc1cc(N2CCCCC2)nc(-c2ccccc2)n1	-0.8%	4%	-10%	0
O=C1SCCC1NS(=O)(=O)c1ccc([N+](=O)[O-])cc1 (configuration not stated)	-3.6%	6%	-3%	.
COc1ccc(NC(=O)C2CCCN2S(=O)(=O)c2ccc3c(c2)CCC(=O)N3)cc1 (configuration not stated)	-1.6%	-8%	-8%	-1
CCOC(=O)c1cccc(NC(=O)C2CCCN(S(=O)(=O)c3cnc[nH]3)C2)c1 (configuration not stated)	0.0%	-5%	-13%	-5
COc1cc(SC)ccc1C(=O)OCC(=O)NCC(C)C	-3.8%	-28%	3%	-7
O=C(NCC(=O)N1CCN(S(=O)(=O)c2cccc(F)c2)CC1)c1ccc(Br)o1	-0.4%	.	-5%	.
CCn1cc(C(=O)N(C)c2cc(C)ccc2OC)c2cc(OC)c(OC)cc2c1=O	0.4%	-9%	10%	.
CC(NC(C(=O)c1ccccc1)c1ccccc1)c1ccccc1 (configuration not stated)	2.5%	.	-5%	.
CCOc1ccc(CC(=O)C2C(=O)CC(C)(C)CC2=O)cc1OCC	3.0%	1%	-12%	4
COC(=O)CCC(=O)N1CCc2cc(S(=O)(=O)N3CCc4ccccc43)ccc21	?	-5%	-8%	9
COc1cc(OC)cc(C(=O)Nc2cccc(NC(C)=O)c2)c1	2.0%	2%	-11%	-5
CCOC(=O)N1CCN(C(=O)c2cc3c(s2)-c2ccccc2OC3)CC1	-3.5%	-19%	-11%	?
CS(=O)(=O)N(CC(=O)Nc1ccccc1C(=O)N1CCCC1)c1ccc2c(c1)OCO2	?	-8%	7%	2
c1ccc(Nc2nc(-c3ccncc3)cs2)nc1	-0.6%	-26%	12%	2
COc1ccc(OC)c(NC(=O)c2nc(-c3ccccc3)oc2C)c1	-0.5%	-1%	-7%	3
CCCCn1c(N)c(N(CCC(C)C)C(=O)c2ccc3ccccc3c2)c(=O)[nH]c1=O	-0.1%	.	5%	.
CCOc1cccc(CN2CCC(n3nccc3NC(=O)c3ccc4c(c3)OCO4)CC2)c1	5.7%	4%	-2%	.
O=C(NCCCNC(=O)c1cccnc1)c1ccc(Cl)cc1	3.7%	-7%	-10%	.
Cc1ccc(S(=O)(=O)C2(C(=O)NCc3ccc4c(c3)OCO4)CC2)cc1	-2.7%	6%	1%	4
COc1cc(-c2c(C#N)c(N)nc3[nH]c(=S)[nH]c(=O)c23)ccc1O	-0.7%	-6%	1%	.

Pulled one by one from above (7):
SMILES	Rango-impB inh	miR-21 reporter	Rango release inh	GLA inh pH 4.5
COc1cc(-c2c(C#N)c(N)nc3[nH]c(=S)[nH]c(=O)c23)ccc1O	-0.7%	-6%	1%	.
COc1cc(OC)cc(C(=O)Nc2cccc(NC(C)=O)c2)c1	2.0%	2%	-11%	-5
O=C(NCCCNC(=O)c1cccnc1)c1ccc(Cl)cc1	3.7%	-7%	-10%	.
CCCCn1c(N)c(N(CCC(C)C)C(=O)c2ccc3ccccc3c2)c(=O)[nH]c1=O	-0.1%	.	5%	.
CCOC(=O)N1CCN(C(=O)c2cc3c(s2)-c2ccccc2OC3)CC1	-3.5%	-19%	-11%	?
COc1ccc(OC)c(NC(=O)c2nc(-c3ccccc3)oc2C)c1	-0.5%	-1%	-7%	3
Cc1ccc(S(=O)(=O)C2(C(=O)NCc3ccc4c(c3)OCO4)CC2)cc1	-2.7%	6%	1%	4

The results go on.
SMILES	Rango-impB inh	miR-21 reporter	Rango release inh	GLA inh pH 4.5
CC(O)c1c(-c2ccccc2)nn(C)c1Cl (configuration not stated)	0.3%	6%	2%	3
c1ccc(-c2cnc(-c3ccccc3)nn2)cc1	1.8%	.	31%	.
Nc1nc(NCc2ccccc2Cl)n(-c2ccccc2)n1	-5.5%	0%	10%	.
CCOC(=O)N/N=C/c1ccc(C)o1	-0.2%	-10%	7%	0
O=C(O)/C(=C\c1cccc(O)c1)c1ccc(S(=O)(=O)N2CCCC2)s1	-3.2%	.	-19%	.
O=C(NCc1ccco1)c1ccc2c(c1)N(Cc1ccccc1)C(=O)CS2	0.2%	7%	-8%	5
CCCCn1c(N)c(N(CCC(C)C)C(=O)c2ccc3c(c2)OCO3)c(=O)[nH]c1=O	?	.	19%	.
Cc1ccc(SCCN2CCN(C)CC2)cc1	-1.5%	-3%	-11%	.
O=C(CNc1ccc(F)cc1)c1ccccc1	0.0%	-21%	-11%	4
O=C(Nc1ccccc1C(=O)N1CCCCC1)c1cccs1	4.9%	3%	8%	.
COc1ccc2cc3cc(C(=O)N(C)C4CCCCC4)oc3nc2c1	2.7%	-60%	-4%	.
CCCCNC(=O)CCn1nc(-c2ccccc2)c2ccccc2c1=O	-1.9%	-6%	0%	.
CC12C=CC(=O)C=C1CCC1C2C(=O)C[C@@]2(C)C1CCC2(O)C(=O)CO (some centres not stated)	1.8%	.	-7%	.
CC(C)C(=O)Nc1cccc(C(=O)NCc2ccc(S(N)(=O)=O)cc2)c1	-3.4%	-9%	14%	4
Cc1ccc(C)c(S(=O)(=O)NCC(=O)Nc2ccc3c(c2)OCO3)c1	5.0%	-2%	0%	.
CN(CC(=O)NCc1cccnc1)S(=O)(=O)c1cc(Cl)ccc1Cl	-4.7%	.	2%	.
O=C1C(C=NCCCN2CCCC2=O)=C(O)c2ccccc21	5.2%	-35%	-8%	-1
CCN(CC)CCCNC(=S)N(CCO)Cc1cc2cc3c(cc2[nH]c1=O)OCO3	-3.9%	1%	-17%	.
Cc1nc(-c2ccccn2)nc(SCC(=O)c2ccc(F)cc2)c1Cl	3.6%	25%	2%	11
Cc1ccc(N2CC(C(=O)Nc3nnc(SCC(=O)Nc4nc(C)cs4)s3)CC2=O)cc1 (configuration not stated)	-0.5%	-8%	-18%	3
CC(C)(C)n1nnnc1C(c1cccc(C#N)c1)N1CCC(Cc2ccccc2)CC1 (configuration not stated)	-2.7%	-1%	1%	7
COc1ccc(CSc2ncnc3sccc23)cc1F	-0.8%	-40%	-7%	-2

These rows are one share of the data. The share of hits here may be higher or lower than overall.
